High-throughput results (PubChem)
GLA inh pH 4.5: alpha-galactosidase A (human) inhibition, pH 4.5 | P06280 | purified enzyme, 4-MU-alpha-Gal fluorescence, pH 4.5 | activity change, negative = inhibition, % at 105 µM | 230,000 tested, under 10 active | AID 1467; inconclusive = small, poorly fitted or top-dose-only inhibition, or a rising curve; inactive = flat fitted curve, though single readings scatter; no compound was filed as active;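 further: 0% = full activity with enzyme and -100% = basal without enzyme; dose as in the result columns while the protocol names 77 µM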
Rango complex inh: prevents formation of the Rango-importin beta complex; Potency, µM (titrated, usually from 92.2 µM), inactives show at the highest dose inhibition of complex formation; AID 540263; Q14974; 340,000 compounds, 0.031% hits; Rango CFP/YFP FRET sensor + importin beta, 45 min; active = rising FRET ratio curve, often small or poorly fitted; inconclusive = mostly compound fluorescence or quenching in the first reads; inactive = flat curves in all reads;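 further: potency means the concentration at half of the fitted maximal effect; 0% = DMSO wells and 100% = buffer wells lacking importin beta; nearly all actives have a fitted effect of over 15% in size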
Target sequence (Q14974 whole entry, looked up): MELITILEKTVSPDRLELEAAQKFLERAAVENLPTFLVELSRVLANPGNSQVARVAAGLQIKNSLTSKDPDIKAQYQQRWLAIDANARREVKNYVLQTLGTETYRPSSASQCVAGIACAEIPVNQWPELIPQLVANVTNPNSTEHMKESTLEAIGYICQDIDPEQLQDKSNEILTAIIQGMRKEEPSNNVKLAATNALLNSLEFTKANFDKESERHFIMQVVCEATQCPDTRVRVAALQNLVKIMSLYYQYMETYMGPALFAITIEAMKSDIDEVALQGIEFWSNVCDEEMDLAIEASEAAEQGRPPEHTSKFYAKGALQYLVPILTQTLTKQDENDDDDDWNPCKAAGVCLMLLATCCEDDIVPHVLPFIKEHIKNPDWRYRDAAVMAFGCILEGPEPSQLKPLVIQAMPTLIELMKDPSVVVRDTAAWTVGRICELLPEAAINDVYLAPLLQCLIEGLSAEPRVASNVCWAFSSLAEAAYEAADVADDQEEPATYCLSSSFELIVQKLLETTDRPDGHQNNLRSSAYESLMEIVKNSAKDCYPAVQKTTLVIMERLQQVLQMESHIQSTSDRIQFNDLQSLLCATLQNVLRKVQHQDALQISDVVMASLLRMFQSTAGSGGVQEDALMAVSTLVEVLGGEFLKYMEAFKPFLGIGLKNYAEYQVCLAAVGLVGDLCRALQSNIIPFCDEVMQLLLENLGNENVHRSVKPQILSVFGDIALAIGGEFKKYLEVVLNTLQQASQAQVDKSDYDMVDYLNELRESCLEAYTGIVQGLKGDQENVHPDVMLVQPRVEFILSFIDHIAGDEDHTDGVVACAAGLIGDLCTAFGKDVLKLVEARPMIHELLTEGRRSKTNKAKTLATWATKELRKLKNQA
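FRET biosensor (snurportin 1 IBB flanked by EYFP and cerulean), 50 nM, with compound 5 min, then 0.125 microM importin beta in PBS, 1 mM DTT, 0.02% Tween-20, 0.1% BSA. CFP/YFP ratio read after 45 min at room temperature; pre-read flags interference.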
miR-21 reporter: raises the signal of a miR-21 reporter; HeLa miR-21 FLuc reporter, luciferase, 48 h; Potency, µM (titrated, usually from 38.3 µM), for the others: top-dose reporter change, positive = more light; 340,000 tested, under 10 active; AID 2288; active = well fitted rising curve with a large enough effect; inconclusive = small, poorly fitted or top-dose-only effect; inactive = no such curve, though single readings can be large or run the other way;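 further: % of control where 0% means no effect; miR-21 action dims this reporter so a rising signal means less miR-21 action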
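Luminescence from a firefly luciferase reporter carrying a miR-21 binding site downstream, stably expressed under a CMV promoter in HeLa cells that make miR-21 endogenously, reports miRNA modulation after 48 h compound exposure up to approximately 40uM final.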
Rango dissoc inh: inhibition of RanGTP-driven Rango-importin beta dissociation; O95149+P62826; Biochemical FRET Rango-importin beta, RanGTP-induced dissociation; Potency, µM (doses to about 46.1 µM), for inactives: at the highest dose activity change, negative = inhibition; 340,000 compounds, 0.071% hits; active means falling FRET ratio curve, often poorly fitted, with flat reads before Ran was added; inconclusive means other falling curves, or compound fluorescence or quenching; inactive means flat or rising ratio curve;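 further: potency means the concentration at half of the fitted maximal effect; % of control where 0% means no effect; nearly all actives have a fitted effect of over 45% in size; -100% = wells without RanGTP and RCC1; the record marks most hits as doubtful in a second field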
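FRET read at 45 min, room temperature: inhibitors block the CFP/YFP signal rise when RanGTP (0.6 uM Ran, 2 mM GTP, 0.2 uM RCC1) frees Rango (0.1 uM) from importin beta (0.25 uM). Pre-read after 5 min compound exposure flags interference.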
* hit, by the source's call; ? = inconclusive; nt = not tested or not shown. These rows are one share of the data; rates above refer to the full screens.

SMILES	GLA inh pH 4.5	Rango complex inh	miR-21 reporter	Rango dissoc inh
CCCc1cc(=O)oc2c(CN(CC)CC)c(O)c(Cl)cc12	?	?	-9%	?
O=C(Nc1ccccc1)NC1(C(=O)NCc2ccc3c(c2)OCO3)CCCCC1	-11	-4.7%	-2%	-16%
CCN(CC)CCOc1ccc2c(c1)C(=NNC(=O)c1ccccn1)c1cc(OCCN(CC)CC)ccc1-2	?	46µM*	?	?
Cc1ccc(C)c(Oc2coc3cc(OCC(=O)Nc4ccccc4C(C)C)ccc3c2=O)c1	3	nt	?	nt
Cc1nc(Cc2nnc(SCC(=O)Nc3c(C)cccc3C)o2)cs1	nt	2.5%	nt	4%
Cc1ccc(NC(=O)c2ccc(CSc3nnc(C)s3)cc2)cc1	-3	-2.3%	-38%	-11%
COc1cc(-c2nnc(-c3ccncc3)o2)ccc1OCc1ccccc1	-9	0.2%	-9%	3%
COc1ccc(/C=N/NC(=O)CCOc2ccccc2C)cc1OC	18	?	-22%	10%
COc1ccc([C@H]2/C=C\CN(C(=O)c3ccc(C)cc3)[C@@H](C)C(=O)N2Cc2ccc(F)cc2)cc1	nt	2.1%	nt	-10%
COc1cc(NC(=O)Nc2cccc3cccnc23)cc(OC)c1OC	nt	-0.8%	6%	9%
CN(C)CCCNc1nc2sc3c(c2c(=O)n1CCc1ccccc1)CCCCC3	-8	3.4%	-16%	2%
CCCCc1c(C)nc2c(OC)cccc2c1SCCC(=O)O	3	2.4%	1%	-9%
CC12CCC(C(=O)N(CC(O)CN3CCN(Cc4ccccc4)CC3)C1=O)C2(C)C (centres undefined)	-9	2.4%	-2%	4%
CCOc1ccccc1-n1c(CNc2ccc(F)cc2)nnc1SCC(=O)NCc1ccco1	7	?	0%	?
S=c1[nH]cc(Oc2ccc(Cl)cc2Cl)c(=S)[nH]1	nt	4.7%	nt	-9%
O=C(NCCN1CCOCC1)c1ccccc1-c1ccccc1	-3	-1.2%	-2%	5%
COCCNC(=O)c1ccccc1NC(=O)CN(c1ccc2c(c1)OCO2)S(C)(=O)=O	-9	6.8%	-9%	1%
Cc1cc(C)cc(C(=O)NC(=S)Nc2ccc(-c3cc4ccccc4oc3=O)cc2)c1	-9	-3.6%	21%	-26%
CC(C)(O)[C@@H]1CC(=O)[C@]2(C)[C@H](CC[C@@]3(C)[C@H](c4ccoc4)OC(=O)[C@H]4O[C@]432)[C@@]1(C)/C=C\C(=O)O	nt	0.8%	nt	6%
Cc1cccc(CNC(=O)C2CCC(=O)N(C3CCCCCC3)C2)c1 (centres undefined)	nt	-3.9%	0%	-19%
COc1ccccc1C(=O)NC(=S)Nc1ccc(NC(=O)c2ccco2)cc1	3	-1.4%	-18%	13%
C=CCN1C(=O)C(CC(=O)O)SC1=Nc1ccc(N=Nc2ccccc2)cc1 (centres undefined)	-4	?	-15%	1%
COC(=O)/C(N=Nc1c(C)n(C)n(-c2ccccc2)c1=O)=C(\C)O	-12	5.1%	-1%	-3%
CCOC(=O)[C@H]1[C@H]2COc3ccc(C)cc3[C@@H]2N2C(=O)c3ccc(C)cc3NC(=O)[C@@]12C	nt	-2.4%	nt	-23%
O=C(NCC1CCCO1)c1cccc(NS(=O)(=O)c2ccccc2)c1 (centres undefined)	nt	-3.2%	nt	-7%

Additional records follow:
SMILES	GLA inh pH 4.5	Rango complex inh	miR-21 reporter	Rango dissoc inh
N#Cc1ccccc1NC(=S)Nc1ccc(F)cc1	-1	0.3%	-14%	-3%
NS(=O)(=O)c1ccc(NC(=O)COC(=O)c2cn(-c3ccccc3)nc2-c2ccc(F)cc2)cc1	1	0.6%	-4%	-10%
CC1(C)C(=O)Nc2ccccc2N1C(=O)COC(=O)Cc1ccc(Cl)c(Cl)c1	nt	1.5%	nt	-2%
CC1CCN(C(=O)C2CCCN(c3ncnc4c3nc3n4CCCCC3)C2)CC1 (centres undefined)	nt	-0.4%	-5%	-9%
Cc1nc2ccccc2c(=O)n1/N=C/c1cc(Br)ccc1O	nt	?	23%	10µM*
COc1cc(Br)c(Br)c(Br)c1N	4	-2.1%	3%	-12%
COc1cccc(C(=O)NC(=S)Nc2ccc3c4c(cccc24)CC3)c1	-16	3.1%	-15%	2%
CCOc1ccc2nc(-c3ccccc3)[nH]c2c1	2	0.0%	14%	-5%
COC(=O)c1c[nH]n2c(=O)cc(C)nc12	-1	-3.6%	5%	16%
CCc1sc(NS(C)(=O)=O)nc1-c1ccccc1	1	-0.1%	-1%	-2%
Cc1ccc(CN2C(=O)CCC2C(=O)NCCN2CCOCC2)cc1 (centres undefined)	3	0.5%	-7%	0%
CCn1c(/C=C/c2ccc(O)cc2)nc2ccccc2c1=O	nt	?	5%	?
CCN(CC)C(=O)CC(c1cc(OC)c(OC)c(OC)c1)c1c(OC)cc(OC)c2c(-c3ccccc3)cc(=O)oc12 (centres undefined)	-13	-0.2%	-13%	-22%
Cc1ccccc1C(=O)NC(=S)Nc1ccc(N2CCOCC2)cc1	-4	0.7%	-13%	-1%
Cc1nc2ccccn2c1-c1ccnc(=S)[nH]1	-6	-2.4%	3%	-2%
CCS(=O)(=O)Nc1cccc(C2=NN(S(=O)(=O)CC)C(c3cccs3)C2)c1 (centres undefined)	nt	-1.4%	-5%	19%
CC(C)CCN1CCN=C1Nc1ccccc1	nt	7.4%	2%	7%
CCOc1cc(/C=N/NC(=O)c2cc(C)n(-c3ccc(F)cc3)c2C)ccc1O	-7	-0.9%	-18%	-8%
Cc1nnsc1C(=O)NCc1c(F)cccc1Cl	-8	-1.3%	1%	-3%
Cc1ccc2c3c(c(SCC(=O)Nc4nccs4)nc2c1)CCCC3	2	nt	0%	nt
Cc1ccc(Oc2ccccc2)c(NC=O)c1	-4	2.7%	-26%	-16%
O=C(Nc1cccc2ccccc12)N1N=CCC1c1ccccc1 (centres undefined)	0	-0.9%	-68%	0%
Cc1noc(C)c1S(=O)(=O)Nc1ccc(C(=O)N2CCN(c3cccc(Cl)c3)CC2)cc1	9	2.4%	-7%	-14%
CC(=O)Nc1ccc(N(C(=O)c2cnccn2)C(C(=O)NC2CCCCC2)c2ccc(O)cc2)cc1 (centres undefined)	-3	-4.0%	-23%	13%
COc1ccc(NC(=S)N2CCC(NC(=O)c3ccc(F)cc3)CC2)cc1	nt	6.6%	8%	-3%

Three compounds out of the list, arranged by number of heavy atoms, high to low.
SMILES	GLA inh pH 4.5	Rango complex inh	miR-21 reporter	Rango dissoc inh
CC(=O)Nc1ccc(N(C(=O)c2cnccn2)C(C(=O)NC2CCCCC2)c2ccc(O)cc2)cc1 (centres undefined)	-3	-4.0%	-23%	13%
CC1CCN(C(=O)C2CCCN(c3ncnc4c3nc3n4CCCCC3)C2)CC1 (centres undefined)	nt	-0.4%	-5%	-9%
COC(=O)c1c[nH]n2c(=O)cc(C)nc12	-1	-3.6%	5%	16%

Continued:
SMILES	GLA inh pH 4.5	Rango complex inh	miR-21 reporter	Rango dissoc inh
CCN(CC(=O)NCc1ccc(Cl)cc1)C(=O)CNS(=O)(=O)c1ccc(NC(C)=O)cc1	nt	-0.3%	0%	2%
CCOC(=O)[C@@H]1[C@H]2COc3ccc(Br)cc3[C@@H]2N2C(=O)N(c3cccc(F)c3)C(=O)[C@@]12C	nt	-0.7%	2%	-1%
O=c1cc(CO)occ1OCc1cccc(F)c1	-20	2.4%	-16%	5%
Cc1nn(CCc2n[nH]c(=S)n2-c2ccc(F)cc2)c(C)c1[N+](=O)[O-]	0	-0.3%	-1%	-2%
COC(=O)c1cc2c(s1)-c1ccc(OC)cc1CC2	?	-3.3%	-83%	12%
CCCCNC(=O)NNC(=O)C1CC1(c1ccccc1)c1ccccc1 (centres undefined)	nt	-2.4%	-1%	2%
CCOC(=O)c1c(C)[nH]c(C(=O)OCC(=O)NC(C)C)c1C	3	3.0%	-10%	19%
O=C(Oc1ccccc1)c1cccnc1Oc1ccccc1	-8	2.1%	2%	-21%
CC(NCc1ccc(F)cc1)C(=O)NC1CCCCC1 (centres undefined)	-7	1.2%	-30%	-10%
Cc1ccc(C(=O)C2C(=O)c3ccccc3C2=O)cc1	6	8.3%	-14%	-5%
Cc1cccc(Nc2c(-c3ccc(O)cc3)nc3ncccn23)c1	-11	?	-4%	-25%
CN(c1ccccc1)S(=O)(=O)c1ccc(NC(=S)NC(=O)C2CC2)cc1	-7	4.3%	-9%	-12%
CCCCN(C(=O)COC(=O)c1ccccc1)c1c(N)n(CCC)c(=O)[nH]c1=O	nt	1.4%	nt	-4%
O=C(c1cnn(C(=O)c2ccccc2)c1)c1ccccc1O	7	-2.0%	-9%	-8%
O=C(Nc1ccccc1)c1cc(-n2cnnc2)ccc1Cl	-3	13%	0%	2%
Cc1ccc(/C=C/c2nc3sc(C(=O)O)c(C)c3c(=O)[nH]2)cc1[N+](=O)[O-]	nt	0.1%	-4%	1%
CCCCc1c(O)nc(SCC(=O)N2CCOCC2)n(-c2ccc(OC)cc2)c1=O	nt	-0.4%	-3%	2%
Nc1nc2nn(-c3ccccc3)nc2c(=O)[nH]1	?	-0.3%	-31%	-15%
COc1ccc(CCNS(=O)(=O)c2ccc3c(c2)NC(=O)CO3)cc1OC	nt	6.3%	0%	-11%
Cc1nnc2n1N=C(c1ccc(OC(F)F)cc1)C(C)S2 (centres undefined)	nt	4.5%	-7%	7%
O=C(CNS(=O)(=O)c1ccc(F)cc1)N1CCN(c2ccc(F)cc2)CC1	-1	-3.0%	-6%	7%
Cc1c(Cl)cccc1NC(=S)N1CCc2ccccc2C1	2	-5.6%	-1%	-7%
COc1cc(CNC(C)(C)CO)cc(Br)c1OCc1ccc(Cl)cc1Cl	-11	3.7%	?	0%
COc1ccc(OCC(=O)O/N=C(\N)c2ccc(OC)cc2)cc1	-4	1.9%	-1%	0%
Cc1ccc(S(=O)(=O)N2CCN=C2SC(C)c2ccccc2)cc1 (centres undefined)	nt	0.1%	0%	2%

Continued:
SMILES	GLA inh pH 4.5	Rango complex inh	miR-21 reporter	Rango dissoc inh
CCOc1ccccc1OCC(=O)NNC(=O)Cn1cnc2c1c(=O)n(C)c(=O)n2C	2	-4.0%	-1%	2%
CNc1nc2c(-c3ccc(Cl)cc3)nnn2c2ccccc12	nt	-0.5%	-9%	0%
CC(=O)OCC(=O)Nc1c(C)cc(C)cc1C	2	2.4%	2%	3%
Cc1nc2cc(C(=O)O)ccc2n1C1CCCCC1	0	-5.0%	-12%	1%
O=C(O)CCCNC(=O)Nc1ccccc1	?	-2.2%	-11%	-11%
COc1ccccc1NC(=O)c1ccc(NC(=O)COC(=O)c2ccc(O)cc2)cc1	nt	-7.0%	nt	-3%
Cc1ccsc1C(=O)N1CC(=O)Nc2ccccc21	3	-0.5%	26%	3%
NS(=O)(=O)c1ccc(NC(=O)Nc2ccc(S(N)(=O)=O)cc2)cc1	-7	3.3%	-2%	-10%
CCC(c1nnnn1Cc1ccccc1)N1CCN(C(=O)c2ccco2)CC1 (centres undefined)	6	-1.2%	-6%	-3%
COc1cc(C2c3c(oc4c(C)cc(C)cc4c3=O)C(=O)N2Cc2cccnc2)ccc1O (centres undefined)	nt	2.2%	nt	0%
Cc1ccc(-c2cn(CCC(=O)O)c(-c3ccc(Cl)nc3)n2)cc1	nt	-1.2%	nt	15%
O=C(CSc1ccccc1)NC1=NCCS1	2	?	-6%	0%
O=C(CNC(=O)c1ccc(F)cc1)c1ccccc1	nt	0.6%	-24%	2%
CCCN(CCC)C(C)C(=O)NCC1(c2ccccc2)CCCC1 (centres undefined)	-19	2.6%	9%	48%
O=C(CCC1CCCCC1)Nc1nnc(C(F)(F)F)s1	nt	2.1%	0%	-7%
O=C(NCCCN1CCOCC1)C1Cc2c(ccc3ccccc23)O1 (centres undefined)	3	2.7%	-2%	4%
Cc1nc([N+](=O)[O-])cn1Cc1cccc([N+](=O)[O-])c1	4	0.8%	0%	13%
CCOC(=O)C1CCCN(c2cc(NCCCO)c([N+](=O)[O-])c3nonc23)C1 (centres undefined)	-7	nt	1%	nt
O=C1CC(N2CCSCC2)C(=O)N1c1cccc(Br)c1 (centres undefined)	10	1.0%	-3%	-12%
